PKD1 kinase inh = PKD1 (human) kinase inhibition; PKD1 kinase fluorescence polarization assay; inhibition, %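 (about 10 µM by stock and volumes)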; actives 0.056% (n = 200,000);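 active = inhibition of 50% or more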;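 also: controls were vehicle for no effect and a reference inhibitor for full effect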
Insulin prom inh = TRM-6 insulin promoter activity inhibition. TRM-6 cells (human fetal islet line), insulin promoter-eGFP reporter, imaging; reporter expression induced with tamoxifen. actives 0.9% (n = 130,000). AID 1273. inhibition, % at 2 µM;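 active = inhibition above the mean plus 3 SD, with well images judged a real hit on visual review, cut at about 60% in these data, passing the limit was not always enough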
GALR2 agonist = activates the human galanin receptor 2 | O43603 | actives 0.48% (n = 140,000) | GALR2-expressing cells, agonist activation read-out | activation, %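 (tested at 5 µM)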;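 active = above mean plus 3 SD of all compounds, about 5% in these data, not always enough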;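 also: 0% = vehicle buffer wells and 100% = reference agonist at full effect; tested in CHO reporter cells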
HSV replic up = increases HSV replication in cells; HSV replication augmentation in cells, fold increase; maximum fold increase; actives 0.005% (n = 220,000); AID 1956;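 active = peak rise of 1.5-fold or more in the series; tested in PC3 cells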;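 also: first round at 10 µM; read as green reporter fluorescence; hits show the peak of a series up to 25 µM; 1 = signal of infected wells without compound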
RGS16-Gao = RGS16-Galphao interaction regulator (human); bead-based flow cytometry RGS16-Galphao binding, fluorescence; actives lie on both sides; binding response (% of control), % at 10 µM; actives 0.38% (n = 220,000);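 active = below 25% or above 175%, edge rows of some plates excepted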;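 also: Galphao activated by GDP with aluminum fluoride before binding; 100% = wells without compound and 0% = beads without RGS; some results beyond the cut were filed as inactive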
Target sequence (O15492 whole entry, looked up): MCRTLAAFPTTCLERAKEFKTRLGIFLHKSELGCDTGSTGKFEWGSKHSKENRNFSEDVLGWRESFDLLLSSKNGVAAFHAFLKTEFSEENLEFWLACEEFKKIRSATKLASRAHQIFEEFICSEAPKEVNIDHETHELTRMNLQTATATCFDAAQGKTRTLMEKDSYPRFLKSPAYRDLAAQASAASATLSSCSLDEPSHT
Target sequence (P09471 whole entry, looked up): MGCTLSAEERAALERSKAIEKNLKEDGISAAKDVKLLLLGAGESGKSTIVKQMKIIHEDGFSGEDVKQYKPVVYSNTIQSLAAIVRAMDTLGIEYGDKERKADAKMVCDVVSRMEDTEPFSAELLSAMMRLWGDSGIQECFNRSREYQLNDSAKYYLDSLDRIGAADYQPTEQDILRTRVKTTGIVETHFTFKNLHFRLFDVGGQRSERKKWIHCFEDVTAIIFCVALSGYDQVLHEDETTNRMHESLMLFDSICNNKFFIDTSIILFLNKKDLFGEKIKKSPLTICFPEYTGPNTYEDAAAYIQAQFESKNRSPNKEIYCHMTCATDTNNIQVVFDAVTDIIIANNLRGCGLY
Insulin prom inh cell count = second read-out of Insulin prom inh, no call of its own (marks repeat the call); normalized cell count, %; measured here: cell count, toxicity; reference of the scale not given here;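 cells exposed to compound for 48 h; stained nuclei by imaging scaled within each plate; lower means fewer cells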
HSV replic up primary fold = further read-out of HSV replic up, marked with its call; fold increase; compound at 10 µM; measured here: primary screen fold increase 10 uM; tested in PC3 cells;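 GFP signal in the first replicate; 1 = infected wells without compound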
Starred values were filed as active, the others as inactive; i = inactive; nt = not tested or not shown; & = joins results of further samples.

SMILES	PKD1 kinase inh	Insulin prom inh	Insulin prom inh cell count	GALR2 agonist	HSV replic up	HSV replic up primary fold	RGS16-Gao
Cc1ccc(-c2cc(N)n(Cc3ccc(Cl)cc3)n2)cc1	-7	nt	nt	-3.5	i	0.91	100
CC(=O)c1cc(F)ccc1OCC(=O)N1CCN(c2ccc(F)cc2)CC1	-10	36	157	nt	nt	nt	102
CNC(=O)CCn1nc(-c2ccc(Cl)cc2)c2ccccc2c1=O	0	-118	110	-0.9	i	0.93	98
Clc1ccc(CO/N=C2\CCCc3nonc32)c(Cl)c1	4	3	65	0.6	i	1.2	66
Cc1cc(NC(=O)CSc2nnc(C)c(=O)n2N)no1	-1	nt	nt	nt	i	1	97
Clc1ccc(-c2nnc(-c3ccc(Br)o3)o2)c(Cl)c1	8	nt	nt	0.1	i	0.92	89
Cc1cc(C)c(S(=O)(=O)NCC2CCC(C(=O)NCCCN3CCOCC3)CC2)c(C)c1 (configuration not stated)	-11	-4	81	-0.6	i	0.81	101
CCC(CC)NCC(O)COc1ccc(Br)cc1 (configuration not stated)	0	nt	nt	nt	i	0.88	95
O=C(Cc1ccccc1)Nc1c(C(=O)N2CCOCC2)cnn1-c1ccccc1	-2	nt	nt	-0.7	i	0.95	100
Cc1ccc(-c2nc(CSCC(=O)N3CCCC3)c(C)o2)cc1	-2	-14	80	-2.3	i	0.92	104
COc1cc(C2C(C(=O)c3ccco3)=C(O)C(=O)N2c2cc(C)on2)cc(Br)c1O (configuration not stated)	-10	nt	nt	-1.0	i	1	116
C(=C\c1nc(-c2ccncc2)no1)/c1ccccc1	-4	nt	nt	nt	i	1.1	102
CCOC(=O)C(CCCP(=O)(c1ccccc1)c1ccccc1)(NC(C)=O)C(=O)OCC	nt	nt	nt	nt	i	0.96	114
O=C(CC1SC(=Nc2ccccc2)N(CCCO)C1=O)Nc1ccc(Cl)cc1 (configuration not stated)	-10	nt	nt	-1.2	i	0.79	102
CC1(C)CC(=O)C/C(=N/NC(=O)c2ccc(-c3ccccc3)cc2)C1	-5	nt	nt	nt	i	0.96	102

Single records (already shown):
C(=C\c1nc(-c2ccncc2)no1)/c1ccccc1 is listed as PKD1 kinase inh: -4; Insulin prom inh: nt; Insulin prom inh cell count: nt; GALR2 agonist: nt; HSV replic up: i; HSV replic up primary fold: 1.1; RGS16-Gao: 102
CC(=O)c1cc(F)ccc1OCC(=O)N1CCN(c2ccc(F)cc2)CC1 is listed as PKD1 kinase inh: -10; Insulin prom inh: 36; Insulin prom inh cell count: 157; GALR2 agonist: nt; HSV replic up: nt; HSV replic up primary fold: nt; RGS16-Gao: 102

Continuation:
SMILES	PKD1 kinase inh	Insulin prom inh	Insulin prom inh cell count	GALR2 agonist	HSV replic up	HSV replic up primary fold	RGS16-Gao
O=S(=O)(/N=C(/Nc1cc(N2CCOCC2)ncn1)c1ccc(F)cc1)c1ccccc1	-4	44	18	-1.4	i	0.99	104
COc1cc(CNCCc2ccc(S(N)(=O)=O)cc2)ccc1OCC(=O)NC(C)(C)C	-5	nt	nt	1.1	i	1.1	131
CCNC(=S)N1CCn2c(nc3ccccc32)C1	-7	22	109	-0.3	i	0.95	105
Cn1c(=O)c2c(SCC(=O)N3CCOCC3)nc(C3CCCCC3)nc2n(C)c1=O	-10	nt	nt	nt	i	0.93	99
COC(=O)c1cc(C(=O)OC)n(Cc2ccc(Br)cc2)n1	5	-10	103	-2.5	i	0.87	114
CN(Cc1cn(C)nc1-c1ccccc1F)CC1CCN(Cc2ccccc2)CC1	nt	nt	nt	nt	i	0.96	100
COc1ccc(C)cc1NC(=O)CN(c1ccccc1F)S(C)(=O)=O	13	-55	87	-1.6	nt	nt	108
COCCn1cnc2c1c(=O)n(CC(=O)c1ccc3c(c1)OCCO3)c(=O)n2Cc1ccccc1	nt	nt	nt	nt	i	0.89	99
COC(=O)c1ccc(N2C(=O)CC(N(C)Cc3ccccc3)C2=O)cc1 (configuration not stated)	2	nt	nt	-2.9	i	1	98
O=C(COc1ccc(S(=O)(=O)Nc2ccccc2)cc1)NCc1ccncc1	-3	-21	141	nt	i	0.74	103
COc1ccc(C2=CSC3=NCCN23)cc1F	0	nt	nt	-1.1	i	0.88	66
Oc1ccccc1-c1nc(NCC2CCCO2)c2ccccc2n1 (configuration not stated)	-8	nt	nt	-1.4	i	0.93	96
COc1cc(N/C(=N/S(=O)(=O)c2ccccc2)c2ccccc2)ncn1	-13	-325	124	-1.5	i	0.9	nt
CCn1c(C)cc(/C=C2\NC(=O)N(CC(=O)Nc3ccc(F)cc3)C2=O)c1C	1	nt	nt	nt	i	0.97	102
COC(=O)c1ccc(NC(=O)C2CC(=O)N(c3cc(C)ccc3C)C2)cc1 (configuration not stated)	-4	-51	134	-2.4	i	1	100

Four compounds picked at random from those above:
SMILES	PKD1 kinase inh	Insulin prom inh	Insulin prom inh cell count	GALR2 agonist	HSV replic up	HSV replic up primary fold	RGS16-Gao
COC(=O)c1cc(C(=O)OC)n(Cc2ccc(Br)cc2)n1	5	-10	103	-2.5	i	0.87	114
COc1ccc(C2=CSC3=NCCN23)cc1F	0	nt	nt	-1.1	i	0.88	66
COc1cc(CNCCc2ccc(S(N)(=O)=O)cc2)ccc1OCC(=O)NC(C)(C)C	-5	nt	nt	1.1	i	1.1	131
COC(=O)c1ccc(N2C(=O)CC(N(C)Cc3ccccc3)C2=O)cc1 (configuration not stated)	2	nt	nt	-2.9	i	1	98

The list goes on.
SMILES	PKD1 kinase inh	Insulin prom inh	Insulin prom inh cell count	GALR2 agonist	HSV replic up	HSV replic up primary fold	RGS16-Gao
COc1cc(NC(=O)Cn2nnc(-c3ccccc3N)n2)cc(OC)c1	-2	3	98	-0.1	i	0.89	108
O=C(CCCNS(=O)(=O)c1cccc2nsnc12)NCc1ccccc1	-9	36	109	-1.6	i	0.85	104
O=C(COC(=O)c1ccncc1)Nc1cccc(Cl)c1	-9	11	76	-0.2	i	0.89	101
COc1ccc(S(=O)(=O)N(NC2=NS(=O)(=O)c3ccccc32)C(=O)C(C)C)cc1	-4	-43	128	nt	i	0.82	108
Cc1cc(NC(=O)CN2C(=O)NC(C)(c3ccccc3)C2=O)no1 (configuration not stated)	-1	-13	168	0.2	i	1.5	111
CC1CCC(NC(=O)C2c3ccccc3C(=O)N2Cc2ccc3c(c2)OCO3)CC1 (configuration not stated)	-3	nt	nt	nt	i	1	106
O=[N+]([O-])c1ccccc1NCc1ccc(Cl)cc1	-9	3	144	-1.2	i	0.83	104
CCOC(=O)c1c(NC(=O)c2nn(CC)cc2Br)c(C#N)nn1-c1ccccc1	-4	-269	103	0.2	i	1	100
CC(C)(C)OC(=O)N1CCN(c2ccc(CNC(=O)c3ccc(Cl)cc3)cc2)CC1	12	0	144	-2.8	i	0.89	87
Cn1c(SCc2ccccc2Cl)nnc1-c1cnccn1	-4	-55	64	0.1	i	0.93	23
Cc1cccc(NC(=S)Nc2cccc(C)n2)n1	nt	nt	nt	nt	i	0.92	106
CN1C=CC=C/C1=C1\SC(=S)N(c2ccccc2)C1=O	-9	-29	103	-0.2	nt	nt	96
CCOCCn1c(CCCO)nc2ccccc21	7	nt	nt	0.4	nt	nt	108
COc1ccc(C2CC(C(F)(F)F)n3nc(C(=O)NCc4c(C)nn(C)c4C)c(Cl)c3N2)cc1 (configuration not stated)	-10	-40	66	-0.1	i	0.85	90
COC(=O)C1=C(C)N(c2ccc(C)c(C)c2)/C(=C/c2cccs2)C1=O	-3	nt	nt	-1.7	i	0.84	98
CCNC(=O)NC(=O)C(C)OC(=O)c1ccc(-n2nc(SC)sc2=S)cc1 (configuration not stated)	5	nt	nt	2.4	i	1.1	104
CC1CC(C)CN(C(=O)Cn2c(-c3nonc3N)nc3ccccc32)C1 (configuration not stated)	-3	-132	105	-0.8	i	0.9	101
CCOC(=O)c1c(CN2CCCCC2)oc2ccc(OC)cc12	8&-8	nt	nt	-3.5&0.4	i	0.97&0.92	99&102
N#Cc1c(NC(=O)C2CCCO2)sc2c1CCCCC2 (configuration not stated)	6	nt	nt	nt	i	0.96	107
Cc1cc(C)nc(N(C#N)S(=O)(=O)c2ccccc2)n1	-6	82*	58*	-2.4	i	1	104
CCc1cccc(C)c1NC(=O)COC(=O)c1c2c(nc3ccccc13)/C(=C\c1cccs1)CCC2	-9	-3	125	2.2	i	0.72	106
CCOc1ccc(/C=C2/SC(=S)N(C(C(=O)O)c3ccccc3)C2=O)cc1OCC (configuration not stated)	-3	nt	nt	nt	i	1	98
COc1ccccc1C1c2c(C)nn(-c3ccccc3)c2NC(=O)C1NC(=O)c1ccccc1 (configuration not stated)	-18	24	73	-1.3	i	1.1	67
COc1ccccc1C(=O)NN1C(=O)C2C3C=CC(O3)C2C1=O (configuration not stated)	53*	nt	nt	-0.3	i	0.9	98
COc1ccc(C(c2nnnn2C2CCCCC2)N2CCN(C)CC2)c(OC)c1 (configuration not stated)	-9	-4	111	nt	i	0.88	99
CC(C)NC(=O)CSc1c2c(nc3ccccc13)CCCC2	2	47	133	nt	i	0.71	102
O=C(CSc1ncc(S(=O)(=O)c2ccccc2)c(=O)[nH]1)Nc1ccccc1Cl	nt	nt	nt	nt	i	1	109
COc1ccc(OC)c(NS(=O)(=O)c2ccc(Cl)nc2)c1	-1	37	64	-0.9	i	0.93	87
O=C(c1ccc2c(c1)OCO2)N1CCNc2ccccc2C1	-4	11	118	-0.8	i	0.92	95
Cn1c(SCC#N)nnc1-c1cnccn1	-6	19	81	-1.1	i	0.95	103
CS(=O)(=O)Nc1ccc(C(=O)N2CCc3ccccc3C2)cc1	1	nt	nt	nt	i	0.9	94
CCN(c1ccccc1)S(=O)(=O)c1ccc(Cl)c(NC(=O)CSc2ncn[nH]2)c1	2	-56	88	0.5	i	1	103
COc1cc2c(cc1OC)CN(C(C)C(=O)N1CCc3ccccc31)CC2 (configuration not stated)	-3	15	103	-2.5	i	0.87	112
CCn1ncc(C(=O)Nc2ccc(S(=O)(=O)N3CCCC3)cc2)c1C	5	nt	nt	-2.3	i	0.9	104
COc1ccc(N2CCN(C(c3nnnn3C3CCCC3)C(C)C)CC2)cc1 (configuration not stated)	-1	nt	nt	nt	i	0.94	107
COc1ccc(NC(=O)c2nc3nccc(C)n3n2)cn1	-2	4	91	0.1	i	1	57
CCCC(=O)N(Cc1cc2ccccc2[nH]c1=O)c1ccccc1OC	3	0	123	0.0	i	0.85	100
COc1ccc2c(c1)c1nc3ccccc3nc1n2CC(=O)OC(C)C	-6	-22	41	-2.4	nt	nt	101
Cc1cc(Br)ccc1OCCCCN1CCC(C)CC1	-3	-25	115	-1.3	i	0.8	100

Screens from PubChem.

Not a hit list, and some 1.3% of all compounds hit somewhere here.
